Lassa entry inh = blocks Lassa virus binding to or entry into cells | Lassa virus pseudotype entry inhibition, cell reporter; control for the full effect not named in the record | Potency, µM (titrated, usually from 37.9 µM), inactives show at the highest dose activity change, negative = inhibition, usual class: inhibitors | hit rate 1.2% among 300,000 | AID 540256; active means well fitted inhibition curve with a large enough effect; inconclusive means small, poorly fitted or top-dose-only effect, or effect the other way; inactive means flat fitted curve, though single readings scatter; tested in HEK293 cells; note: % is set by controls: 0 for no effect and ±100 for the full control effect; nearly all actives have a fitted effect of over 50% in size; luciferase read-out
Cruzain Triton = inhibitors of Trypanosoma cruzi cruzain with detergent; P25779; purified cruzain, Z-FR-AMC fluorescence, 0.01% Triton; Potency, µM, for inactives: max response, negative = inhibition, hits mostly inhibitors; hit rate 0.43% among 200,000; active = well fitted curve in the direction sought with a large enough effect; inconclusive = small, poorly fitted or top-dose-only effect, or another doubt; inactive = no such curve, though single readings can be large; an effect the other way counts as inactive or inconclusive;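 note: plate controls were neutral wells for no effect and buffer without enzyme for full effect; nearly all actives have a fitted effect of over 40% in size; top concentration of the series not given in the record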
Target sequence (P25779 123-467 limits assumed): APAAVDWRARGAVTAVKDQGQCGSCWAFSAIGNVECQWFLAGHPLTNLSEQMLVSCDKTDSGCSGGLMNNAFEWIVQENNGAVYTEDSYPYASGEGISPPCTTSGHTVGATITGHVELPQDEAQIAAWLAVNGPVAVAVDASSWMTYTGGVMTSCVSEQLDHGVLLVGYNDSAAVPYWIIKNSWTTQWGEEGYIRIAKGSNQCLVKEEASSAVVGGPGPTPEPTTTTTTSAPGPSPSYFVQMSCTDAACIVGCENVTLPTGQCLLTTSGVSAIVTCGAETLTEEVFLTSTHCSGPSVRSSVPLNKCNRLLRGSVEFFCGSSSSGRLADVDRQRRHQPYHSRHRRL
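15 min RT preincubation of 1.5 nM cruzain with compound, then 2 uM Z-FR-AMC added; kinetic AMC fluorescence, 60 s delta. Triton X-100 0.01%, pH 5.5.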
SARS PLpro yeast = blocks SARS-CoV papain-like protease in a yeast assay; S. cerevisiae expressing SARS-CoV PLpro, growth rescue; control for the full effect not named in the record; Potency, µM (top dose mostly 32.9 µM), inactives show at the highest dose activity, positive = growth rescue; hit rate 0.19% among 330,000; AID 485353; note: 0% is about no effect; nearly all actives have a fitted effect of over 55% in size; growth read by luminescence after 48 h
RE007 growth inh = less growth of the S. pombe RE007 Vpr strain | S. pombe RE007 Vpr strain, BacTiter-Glo ATP luminescence, 24 h; control for the full effect not named in the record | Potency, µM (titrated, usually from 92.2 µM), for the others: at the top dose activity change, negative = less growth | hit rate 0.21% among 360,000 | AID 651644; active = well fitted falling curve with a large enough effect; inconclusive = small, poorly fitted or top-dose-only effect; inactive = no such curve, though single readings can be large or run the other way;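 note: % is set by controls: 0 for no effect and ±100 for the full control effect; nearly all actives have a fitted effect of over 50% in size; the assay follows cell death caused by Vpr and the record does not say whether a fall means rescue or toxicity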
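Fission yeast strain RE007, carrying one chromosomally integrated HIV-1 vpr copy, was seeded at OD 0.01 in PMG+AL medium with 23 nL pinned compound. After 24 h at 30 °C and 99% humidity, viability was read by BacTiter-Glo luminescence.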
Marburg entry inh = inhibitors of Marburg virus binding or cell entry | AID 540276 | Marburg virus pseudotyped entry inhibition, cell reporter; control for the full effect not named in the record; about a third of the inactives were read at about 46 µM | hit rate 1.8% among 300,000 | Potency, µM (highest dose often 37.8 µM), for inactives: top-dose activity change, negative = inhibition, usual class: inhibitors; active = well fitted inhibition curve with a large enough effect; inconclusive = small, poorly fitted or top-dose-only effect, or effect the other way; inactive = flat fitted curve, though single readings scatter; tested in HEK293 cells; about a fifth of its hits are not listed in these tables; note: % is set by controls: 0 for no effect and ±100 for the full control effect; luciferase read-out
2A StopGo = lowers the luciferase signal of an FMDV 2A StopGo reporter. human cells with a luciferase reporter of 2A StopGo recoding; control for the full effect not named in the record. Potency, µM (series often up to 57.9 µM), without a hit: top-dose signal change, negative = less light. hit rate 1.2% among 410,000. AID 1159524; active = well fitted falling curve with a large enough effect; inconclusive = small, poorly fitted or top-dose-only effect; inactive = no such curve, though single readings can be large or run the other way; tested in HEK293T cells; note: % is set by controls: 0 for no effect and ±100 for the full control effect; nearly all actives have a fitted effect of over 45% in size; luciferase light after 4 h
NS1 inh = influenza NS1 inhibition; S. cerevisiae slowed by influenza A NS1, growth recovery by OD600; Potency, µM (top dose mostly 46.1 µM), for the others: at the top dose activity, positive = more growth; hit rate 0.4% among 270,000; note: actives are rising curves; nearly all actives have a fitted effect of over 50% in size
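S. cerevisiae expressing influenza A NS1, grown in glucose, washed, then diluted 1:100 into pH 6.0 -URA galactose medium with 23 nl compound. Growth recovery read as OD600; NS1-free strain serves as control.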
Cruzain noTriton = blocks cruzain activity in detergent-free assay; Potency, µM, for inactives: max response, negative = inhibition, actives largely listed as inhibitors; purified cruzain, Z-FR-AMC fluorescence, no detergent; hit rate 2.3% among 200,000; P25779; active = well fitted curve in the direction sought with a large enough effect; inconclusive = small, poorly fitted or top-dose-only effect, or another doubt; inactive = no such curve, though single readings can be large; an effect the other way counts as inactive or inconclusive;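 note: plate controls were enzyme without inhibitor for no effect and buffer without enzyme for full effect; nearly all actives have a fitted effect of over 40% in size; top concentration of the series not given in the record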
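Purified cruzain at 1.5 nM, pre-incubated 15 min with compound at room temperature in 100 mM sodium acetate pH 5.5, 5 mM DTT, 0.00005% Triton X-100. Reaction started with 2 uM Z-FR-AMC; AMC fluorescence increase over 60 s gives rate.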
Active calls of the source: *; u = inconclusive; x = no result given; & = joins results of further samples; [ ] = remark or other dose. Unless noted, calls come from the whole dose curve; as a rule, active means well fitted rising curve with a large enough effect; inconclusive means small, poorly fitted or top-dose-only effect; inactive means no such curve, though single readings can be large or run the other way. Potency is the fitted concentration of half-maximal effect.

SMILES	Lassa entry inh	Cruzain Triton	SARS PLpro yeast	RE007 growth inh	Marburg entry inh	2A StopGo	NS1 inh	Cruzain noTriton
CCCC(=O)NC(c1ccc(Cl)cc1Cl)c1ccc2cccnc2c1O (stereo not drawn)	u	x	u	1%	2.2µM*	-12%	-114%	x
COC(=O)c1cc(NC(=O)Nc2cccc(Cl)c2)ccc1Cl	u	-9.0%	-22%	0%	u	x	-55%	2%
CCn1c(SCC(=O)NCCc2ccccc2)nnc1-c1cccs1	-3%	5.2%	-4%	-2%	0%	-8%	-5%	-6%
O=C(N/N=C/c1ccncc1)C12CC3CC(CC(C3)C1)C2	x	x	-5%	3%	4%[46.1 µM]	-3%	x	x
CCCCN1C(C)=CC(=C2C(=O)c3ccccc3C2=O)C=C1C	u	x	-2%	-8%	u	-44%	-5%	x
CCOCCCn1c(SCC(=O)Nc2cc(C)ccc2C)nc2c(oc3ccccc32)c1=O	x	-0.2%	x	x	13%[46.1 µM]	0%	x	-4%
CCOC(=O)c1c(N)sn(-c2ccccc2)c1=S	12%	-8.3%	-1%	10%	-1%	-9%	5%	3%
CC(=O)c1ccc(-n2c(C)c(C(C)=O)c3cc(O)ccc32)cc1	-7%[46.1 µM]	x	0%	4%	7%[46.1 µM]	-23%	0%	x
CCCn1c(SCC(N)=O)nnc1-c1ccco1	-20%	1.9%	-1%	-3%	1%[46.1 µM]	6%	2%	3%
COc1ccc(S(=O)(=O)NCC2CCC(C(=O)N3CCC4(CC3)OCCO4)CC2)cc1 (stereo not drawn)	1%	-2.0%	-1%	1%	-19%&-19%[46.1 µM]	1%	-1%	u
CCCCN(C)C(=O)CC(NS(=O)(=O)c1ccc(NC(C)=O)cc1)C(C)C (stereo not drawn)	u	x	-1%	1%	-6%	3%	x	x
COc1ccc(CCNc2nc3c(c(=O)n(C)c(=O)n3C)n2Cc2ccc(F)cc2)cc1OC	u	-0.9%	x	x	6.3µM*	16µM*	x	-2%
O=c1c2oc3ccccc3c2n(Cc2ccccc2F)c(=O)n1Cc1ccco1	11%[46.1 µM]	-1.1%	x	x	x	0%	x	13%
Clc1ccc(-n2ncc3c(NCc4cccs4)ncnc32)cc1	1%	-7.7%	-2%	7%[3.69 µM]	12%&12%	42%[activator]	-13%	9%
COCCCNc1nc(N)c([N+](=O)[O-])c(NC2CCCCC2)n1	-6%[46.1 µM]	x	0%	6%	-30%[46.1 µM]	-24%	-4%	x
O=C(COc1ccccc1)NCC(c1cccs1)S(=O)(=O)c1ccc(Cl)cc1 (stereo not drawn)	-19%[46.1 µM]	-1.9%	x	x	x	0%	x	-11%
O=C(Nc1c2c(nn1-c1ccc(F)cc1)CS(=O)(=O)C2)c1ccc(Br)o1	x	x	4%	2%	x	-5%	0%	x
CCOC1Cc2ccccc2N(C(N)=O)c2ccccc21 (stereo not drawn)	-10%	-1.6%	2%	2%	-16%	x	-2%	-6%
CN(C)S(=O)(=O)c1ccc(C(=O)NCCSc2ccccc2)cc1	u	-2.4%	-5%	7%	7%	16%	-3%	0%
CCOC(=O)N1CCc2c(sc(NC(=O)Cc3ccccc3)c2C(=O)c2ccc(OC)cc2)C1	x	x	1%	0%	x	u	-4%	x
COc1cc2c(cc1OC)C1(CCCC1)C(N)=C2C#N	u	-1.8%	-19%	6%	u	-24%	-6%	0%
CC1CN(C(=O)N2CCC(C(=O)NCc3ccco3)CC2)c2ccccc2O1 (stereo not drawn)	-29%[46.1 µM]	-5.8%	x	x	x	-2%	x	u
CSCC[C@H](NC(=O)c1ccc2ccccc2c1)C(=O)N1CCC2(CC1)NCCc1[nH]cnc12	u	x	-4%	-7%	-5%[46.1 µM]	-14%	-13%	x
CCOc1cc(C(=O)Nc2cccc(OCC(=O)N3CCOCC3)c2)cc(OCC)c1OCC	19%[46.1 µM]	x	2%	1%	u	-30%	3%	x
CCc1nnc(NC(=O)c2ccc(Cl)c(S(=O)(=O)N3CCc4ccccc43)c2)s1	-14%	-4.7%	1%	17%	u	u	14%	13µM*
Cc1ccnc(NS(=O)(=O)c2ccc(NC(=O)c3cc(=O)c4ccc(C)c(C)c4o3)cc2)n1	0%[46.1 µM]	-1.2%	x	x	-5%[46.1 µM]	15%	x	-6%
CCCCCn1c(SCCC(C)C)nc2c1c(=O)[nH]c(=O)n2C	u	-5.8%	-1%	9%	u	40µM*	-30%	-5%
O=C(CSc1nnnn1C1CCCCC1)NCc1ccc2c(c1)OCO2	-9%	-1.1%	1%	9%	17%	x	-54%	-2%
COc1cc(OC)c(S(=O)(=O)N2CCN(C(=O)c3ccco3)CC2)cc1NC(C)=O	-5%	x	2%	-13%	u	8%	9%	x
CCCN(c1ccc(OCC)cc1)c1ncnc2nc[nH]c12	x	-1.0%	0%	6%	x	5%	-34%	14%
O=C(N/N=C/c1cccc([N+](=O)[O-])c1)c1ccc(Br)cc1	-4%[46.1 µM]	x	0%	3%	-20%[46.1 µM]	39%[activator]	4%	x
CCc1ccc(S(=O)(=O)c2nnn3c2nc(N2CCN(CC)CC2)c2sccc23)cc1	1%[46.1 µM]	-0.4%	x	x	x	24%	x	10%
COC(=O)c1cccc(Nc2nc3ccccc3nc2C)c1	1%	-7.1%	-1%	-1%	-13%	-8%	-69%	u
COc1ccc(C(=O)Nc2nc3n(n2)C(c2ccc(F)cc2)C=C(c2ccc(Cl)cc2)N3)cc1 (stereo not drawn)	-6%[46.1 µM]	-8.8%	x	x	-3%[46.1 µM]	-4%	x	u
Cc1cc(C(=O)NC2CCCC2)on1	x	-3.6%	-35%	-8%	x	-20%	-6%	4%
COC(=O)c1ccccc1NC(=O)C12CCC(C)(C(=O)O1)C2(C)C (stereo not drawn)	-2%	-1.7%	-3%	-11%	12%	-10%	0%	-3%
Cn1cccc1/C=C(/C#N)C(N)=S	u	-13%	-1%	-3%	8%	25%	11%	-17%
CCOc1ccc(-c2onc(C(F)(F)F)c2-c2cscn2)c(O)c1	-3%	-4.6%	-16%	-20%	2%	u	-6%	17%
CCOC(=O)C1(Cc2cccc(OC)c2)CCCN(S(=O)(=O)N(C)C)C1 (stereo not drawn)	-17%[46.1 µM]	x	2%	-4%	-12%[46.1 µM]	-2%	-1%	x
C=CCNC(=O)c1cc(-c2ccc(Br)cc2)on1	-17%	-1.3%	0%	-12%	u	57%[activator]	-13%	-2%
CCOc1ccc(N(CC(=O)Nc2ccccc2OC)S(C)(=O)=O)cc1	x	x	-11%	6%	x	8%	1%	x
COc1ccc(OCc2cc(C(=O)N3CCCC3)no2)c2ccccc12	x	x	2%	8%	x	19%	-15%	x
COC(=O)Cn1c(=O)c(C)nc2ccccc21	9%	x	3%	-7%	2%	-1%	x	x
O=C(NCc1cccc(F)c1)c1cccc(OC2CCN(C(=O)C3CC3)CC2)c1	-29%	x	-5%	3%	u	28µM*	-13%	x
COc1ccc(CCNC(=O)C(=O)NCC2CCCN2S(=O)(=O)c2cccs2)cc1 (stereo not drawn)	u	x	1%	-4%	u	-22%	x	x
COc1ccc(S(=O)(=O)N2CCCCCC2)cc1C(=O)N1CCCC(C(F)(F)F)C1 (stereo not drawn)	21%[46.1 µM]	x	-18%	-5%	-5%	-23%	x	x
COc1ccccc1NC(=O)Cn1cnc2sc(C)c(S(=O)(=O)N3CCCCC3)c2c1=O	8%	-0.3%	u	1%	1%	-12%	-5%	15%
COc1cccc(NC(=O)CCN2CCOCC2)c1	2%	x	-3%	-5%	-1%	4%	0%	x
CC1CCCC(NC(=O)COC(=O)c2c[nH]c(=O)[nH]c2=O)C1C (stereo not drawn)	0%	1.2%	4%	8%	6%	18%	13%	2%
COc1ccc(C(=O)Nc2cc(C)c(O)c(-c3nc4ccccc4s3)c2)cc1OC	-19%[46.1 µM]	0.8%	x	x	3%[46.1 µM]	11%	x	-2%

Next results follow.
SMILES	Lassa entry inh	Cruzain Triton	SARS PLpro yeast	RE007 growth inh	Marburg entry inh	2A StopGo	NS1 inh	Cruzain noTriton
O=C1c2cccc3cccc(c23)C(=O)N1/N=C/c1ccc(O)cc1O	-4%	-4.4%	-13%	8%	1%	0%	11%	u
CCOC(=O)c1c(NC(=O)c2ccc(S(=O)(=O)N3CCOCC3)cc2)sc2c1CCN(C)C2	-4%	-4.4%	6%	3%	u	23%	-19%	2%
COc1ccc(-c2cc(=O)oc3cc(OCC(=O)NCCN4CCOCC4)ccc23)cc1	x	x	10%	4%	x	-17%	-10%	x
Cc1cc(S(=O)(=O)NCc2ccc3c(c2)OCO3)ccc1F	x	x	-13%	-10%	x	46%[activator]	-54%	x
Cc1ccc(NC(=O)C2CCCN2S(=O)(=O)c2ccc3c(c2)n(C)c(=O)c(=O)n3C)cc1 (stereo not drawn)	-6%	0.5%	0%	0%	-2%&2%[46.1 µM]	-1%&-8%	-3%	-10%
S=c1[nH]nc(CSCc2ccccc2Cl)n1C1CCCCC1	u	x	0%	35%	22%[46.1 µM]	-22%	x	x
O=c1oc2ccccc2c(NC2CCCCC2)c1NS(=O)(=O)c1ccc(Cl)cc1	x	x	1%	-16%	x	-9%	15%	x
CC(C)Cc1cc(C(=O)N2CCCC(C(=O)c3cc(F)ccc3F)C2)no1 (stereo not drawn)	x	x	0%	-10%	x	-16%	5%	x
COc1ccc(C(CCN(Cc2ccc(OC)c(OC)c2)C(C)=O)C(C)C)cc1 (stereo not drawn)	x	x	-1%	14%	x	-14%	-3%	x

Bioassay records as filed in PubChem BioAssay.
